# Yeast UUG start: yeast start codon fidelity modulation; S. cerevisiae UUG-firefly luciferase reporter, luminescence/redox ratio; activity score, % at 18.7 µM; 350,000 compounds, 0.13% hits; AID 602363;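 active means replicate mean at a twofold rise or more, about +100% in these data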;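 further: firefly luciferase made from a UUG start codon reports start codon fidelity; reporter light over untreated wells divided by growth signal over untreated wells; some hits fall short of that in this replicate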
# HIV Env fusion: HIV envelope-mediated fusion inhibition; 360,000 compounds, 1.1% hits; HeLa-JRFL Env/CEM21 cell fusion, luciferase; inhibition, % at 12.3 µM;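 active means mean replicate inhibition score of at least 50 and every replicate individually at or above 50; inconclusive means only one of the two criteria met; inactive means mean below 50 and not all replicates reaching 50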;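 further: 0% = plate neutral controls and 100% = maraviroc near 300 nM; one replicate is shown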
# Numbers without * were called inactive; ? = inconclusive; [ ] = another dose, or the depositor's remark. A portion of the library; count on the stated rates, not on these rows.
nr	SMILES	Yeast UUG start	HIV Env fusion
1	COc1ccc(S(=O)(=O)Nc2ccc3c(c2)C(=O)N([C@H](C)CO)C[C@@H](C)[C@H](CN(C)C(=O)Nc2ccc4c(c2)OCO4)OCCCC[C@@H](C)O3)cc1	19	-52[16.7 µM]
2	CN(C)CC(=O)N[C@@H]1CC[C@H](CC(=O)NCc2ccccc2F)O[C@@H]1CO	2	-3[16.7 µM]
3	O=C(N[C@H]1CC[C@H](CCNC(=O)C2CC2)O[C@H]1CO)c1ccncc1	6	-6[16.7 µM]
4	COc1ccc(S(=O)(=O)N(C)C[C@@H]2Oc3ccc(NS(=O)(=O)c4ccc(F)cc4)cc3C(=O)N([C@H](C)CO)C[C@H]2C)cc1	-1	5[16.7 µM]
5	Cc1noc(C)c1S(=O)(=O)Nc1ccc2c(c1)C(=O)N([C@H](C)CO)C[C@@H](C)[C@@H](CN(C)Cc1ccncc1)OCCCC[C@@H](C)O2	3	-11[16.7 µM]
6	Cc1cccc(S(=O)(=O)N[C@@H]2CC[C@H](CCNC(=O)Nc3cc(F)ccc3F)O[C@@H]2CO)c1	2	-10[16.7 µM]
7	Cc1noc(C)c1NC(=O)N(C)C[C@H]1Oc2ccc(NC(=O)Nc3ccc(C(F)(F)F)cc3)cc2CC(=O)N([C@H](C)CO)C[C@@H]1C	13	-12[16.7 µM]
8	C[C@@H]1CCCCO[C@H](CN(C)S(=O)(=O)c2ccc(F)cc2)[C@H](C)CN([C@H](C)CO)C(=O)c2cc(NC(=O)Nc3ccc(F)cc3)ccc2O1	-4	-33[16.7 µM]
9	C[C@@H]1CN([C@H](C)CO)C(=O)Cc2cc(NC(=O)C3CCCCC3)ccc2O[C@H]1CN(C)Cc1ccc(Oc2ccccc2)cc1	-7	-9[16.7 µM]
10	CCC(=O)N(C)C[C@H]1Oc2cc(Br)ccc2S(=O)(=O)N([C@H](C)CO)C[C@H]1C	5	-3[16.7 µM]
11	C[C@H](CO)N1C[C@H](C)[C@H](CN(C)S(=O)(=O)c2cccc(F)c2)Oc2ncc(C#CC3CCCC3)cc2C1=O	6	4[16.7 µM]
12	CCCC(=O)Nc1ccc2c(c1)C(=O)N(C)C[C@H](OC)[C@@H](C)CN(Cc1ccccc1)[C@@H](C)CO2	-8	10[16.7 µM]
13	C=CC[C@]12N=C(c3ccc(OCCCO)cc3)O[C@H]1c1ccccc1CN(Cc1ccccc1)C2=O	-10	-20[16.7 µM]
14	O=C(C[C@H]1CC[C@@H](NC(=O)Nc2ccc(F)cc2)[C@H](CO)O1)NCc1cccc(F)c1	-7	-2[16.7 µM]
15	COc1ccccc1S(=O)(=O)N[C@H]1CC[C@H](CC(=O)N2CCOCC2)O[C@H]1CO	-13	-28[16.7 µM]
16	Cc1ccc(S(=O)(=O)N[C@@H]2CC[C@@H](CCNC(=O)Nc3ccc(Cl)cc3)O[C@@H]2CO)cc1	18	16[16.7 µM]
17	C[C@@H]1CN([C@H](C)CO)C(=O)c2cc(NC(=O)Nc3ccccc3)ccc2O[C@@H]1CN(C)Cc1ccc(C(F)(F)F)cc1	7	-10[16.7 µM]
18	C[C@@H]1CN([C@H](C)CO)C(=O)c2cc(NS(=O)(=O)c3ccccc3)ccc2O[C@H]1CN(C)S(=O)(=O)c1cccs1	12	6[16.7 µM]
19	CN1CCN(C(=O)C[C@H]2C=C[C@H](NC(=O)c3ccc4c(c3)OCO4)[C@H](CO)O2)CC1	-16	-15[16.7 µM]
20	C[C@H]1CN([C@@H](C)CO)C(=O)c2cc(NS(=O)(=O)c3ccc(F)cc3)ccc2O[C@H]1CN(C)C(=O)Nc1cccc2ccccc12	7	0[16.7 µM]
21	CC(C)CN1C(=O)[C@@]2(Cc3ccccc31)c1ccccc1C(=O)N(Cc1ccccc1Cl)[C@H]2c1ccc(CO)cc1	22	-6[16.7 µM]
22	COCC(=O)N(C)C[C@@H]1Oc2cc(C#CC(C)(C)O)ccc2S(=O)(=O)N([C@@H](C)CO)C[C@@H]1C	8	12[16.7 µM]
23	C[C@@H]1CCCCO[C@H](CN(C)C(=O)CCC(F)(F)F)[C@H](C)CN([C@@H](C)CO)C(=O)c2cc(NC(=O)Nc3ccc4c(c3)OCO4)ccc2O1	-1	26[16.7 µM]
24	O=C(Cc1cccnc1)N[C@H]1CC[C@H](CCn2cc(Cc3ccccc3)nn2)O[C@@H]1CO	-7	15[16.7 µM]
25	CC(C)NC(=O)N(C)C[C@H]1Oc2cc(-c3cccnc3)ccc2S(=O)(=O)N([C@H](C)CO)C[C@@H]1C	-9	-3[16.7 µM]
26	C[C@H](CO)N1C[C@H](C)[C@@H](CN(C)Cc2ccccc2)Oc2c(NS(=O)(=O)c3ccc(Cl)cc3)cccc2C1=O	3	-18[16.7 µM]
27	C[C@H](CO)N1C[C@H](C)[C@H](CN(C)S(=O)(=O)c2ccc(F)cc2)Oc2c(NS(=O)(=O)c3ccc(Cl)cc3)cccc2C1=O	-11	7[16.7 µM]
28	C[C@@H]1CCCCO[C@H](CN(C)C(=O)NC2CCCCC2)[C@@H](C)CN([C@@H](C)CO)C(=O)c2cc(NC(=O)c3ccncc3)ccc2O1	3	-14[16.7 µM]
29	C[C@H]1CCCCO[C@@H](CN(C)C(=O)NC2CCCCC2)[C@@H](C)CN([C@@H](C)CO)C(=O)c2cc(NC(=O)C3CCCCC3)ccc2O1	6	-41[16.7 µM]
30	O=C(C[C@@H]1C=C[C@@H](NC(=O)C2CCC2)[C@H](CO)O1)NCc1ccccc1Cl	-10	-4[16.7 µM]

# Of the compounds above, 3 contain a CF3 group.
nr	SMILES	Yeast UUG start	HIV Env fusion
7	Cc1noc(C)c1NC(=O)N(C)C[C@H]1Oc2ccc(NC(=O)Nc3ccc(C(F)(F)F)cc3)cc2CC(=O)N([C@H](C)CO)C[C@@H]1C	13	-12[16.7 µM]
17	C[C@@H]1CN([C@H](C)CO)C(=O)c2cc(NC(=O)Nc3ccccc3)ccc2O[C@@H]1CN(C)Cc1ccc(C(F)(F)F)cc1	7	-10[16.7 µM]
23	C[C@@H]1CCCCO[C@H](CN(C)C(=O)CCC(F)(F)F)[C@H](C)CN([C@@H](C)CO)C(=O)c2cc(NC(=O)Nc3ccc4c(c3)OCO4)ccc2O1	-1	26[16.7 µM]

# Later entries
nr	SMILES	Yeast UUG start	HIV Env fusion
31	C[C@@H]1CN([C@H](C)CO)C(=O)c2cc(-c3cccnc3)cnc2O[C@H]1CN(C)C(=O)C1CC1	-10	2[16.7 µM]
32	CCC(=O)N(C)C[C@H]1Oc2ncc(-c3ccccc3C)cc2C(=O)N([C@H](C)CO)C[C@@H]1C	-1	4[16.7 µM]
33	O=C(NCC[C@@H]1CC[C@H](NS(=O)(=O)c2ccccc2)[C@H](CO)O1)c1ccccc1F	12	5[16.7 µM]
34	C[C@H](CO)N1C[C@H](C)[C@@H](CN(C)CC2CCCCC2)Oc2c(NC(=O)C3CCOCC3)cccc2C1=O	29	6[16.7 µM]
35	C[C@@H]1CN([C@@H](C)CO)C(=O)c2cc(NC(=O)CCCN(C)C)ccc2O[C@@H]1CN(C)Cc1ccc(Cl)c(Cl)c1	-2	-17[16.7 µM]
36	CC(C)CC#Cc1ccc2c(c1)O[C@@H](CN(C)C(=O)NC(C)C)[C@@H](C)CN([C@@H](C)CO)S2(=O)=O	5	4[16.7 µM]
37	COc1ccc(S(=O)(=O)Nc2ccc3c(c2)C(=O)N([C@@H](C)CO)C[C@@H](C)[C@@H](CN(C)C(=O)NC2CCCCC2)OCCCC[C@@H](C)O3)cc1	5	-141[16.7 µM]
38	C[C@@H]1CN([C@H](C)CO)C(=O)c2cc(NS(=O)(=O)c3ccc(F)cc3)ccc2O[C@@H]1CN(C)Cc1ccccc1	3	1[16.7 µM]
39	Cc1ccc(S(=O)(=O)N[C@H]2CC[C@H](CCNC(=O)c3ccc4c(c3)OCO4)O[C@@H]2CO)cc1	9	-9[16.7 µM]
40	COc1cccc(NC(=O)N(C)C[C@@H]2Oc3cc(C#Cc4ccccc4)ccc3S(=O)(=O)N([C@@H](C)CO)C[C@@H]2C)c1	1	?
41	C[C@@H]1CN([C@@H](C)CO)C(=O)c2cc(NS(=O)(=O)c3ccc(F)cc3)ccc2O[C@H]1CN(C)Cc1ccc(Oc2ccccc2)cc1	2	24[16.7 µM]
42	COc1ccc(-c2ccc3c(c2)O[C@@H](CN(C)C(C)=O)[C@H](C)CN([C@@H](C)CO)S3(=O)=O)cc1	10	-13[16.7 µM]
43	O=C(N[C@@H]1CC[C@@H](CCn2cc(C3(O)CCCC3)nn2)O[C@@H]1CO)C1CC1	-8	-3[16.7 µM]
44	COc1ccccc1-c1cn(CC[C@@H]2CC[C@@H](NS(=O)(=O)c3ccccc3C)[C@H](CO)O2)nn1	-12	-5[16.7 µM]
45	CC(C)NC(=O)N(C)C[C@@H]1Oc2ncc(C#Cc3ccc(F)cc3)cc2C(=O)N([C@H](C)CO)C[C@H]1C	2	-1[16.7 µM]
46	C[C@@H]1CCCCO[C@H](CN(C)C(=O)NC2CCCCC2)[C@H](C)CN([C@@H](C)CO)C(=O)c2cc(NC(=O)Nc3ccc(C(F)(F)F)cc3)ccc2O1	18	0[16.7 µM]
47	COc1ccc(S(=O)(=O)Nc2ccc3c(c2)C(=O)N([C@@H](C)CO)C[C@@H](C)[C@H](CN(C)C(=O)NC(C)C)OCCCC[C@@H](C)O3)cc1	12	0[16.7 µM]
48	COc1ccc(S(=O)(=O)Nc2ccc3c(c2)C(=O)N([C@@H](C)CO)C[C@H](C)[C@H](CN(C)C(=O)C2CCCCC2)OCCCC[C@H](C)O3)cc1	18	-11[16.7 µM]
49	O=C(C[C@H]1C[C@H]2c3cc(NS(=O)(=O)c4ccc(F)cc4)ccc3O[C@H]2[C@@H](CO)O1)NC1CCCC1	-4	-2[16.7 µM]
50	CNC[C@@H]1OCCCC[C@@H](C)Oc2ccc(NS(C)(=O)=O)cc2C(=O)N([C@H](C)CO)C[C@@H]1C	-18	25[16.7 µM]
51	CCCNC(=O)C[C@H]1C[C@H]2c3cc(NC(=O)CN(C)C)ccc3O[C@H]2[C@@H](CO)O1	-13	80*[16.7 µM]
52	Cc1ccccc1-c1cnc2c(c1)C(=O)N([C@H](C)CO)C[C@H](C)[C@@H](CN(C)CC1CCOCC1)O2	-5	2[16.7 µM]
53	C[C@@H]1CN([C@H](C)CO)C(=O)c2cccc(NC(=O)C3CCCCC3)c2O[C@@H]1CN(C)S(=O)(=O)c1ccc(Cl)cc1	-8	-11[16.7 µM]
54	Cc1ccc(S(=O)(=O)N(C)C[C@@H]2OCCCC[C@H](C)Oc3ccc(NC(=O)Cc4ccccc4)cc3C(=O)N([C@H](C)CO)C[C@H]2C)cc1	-6	2[16.7 µM]
55	COc1ccc(-c2ccc([C@H]3[C@H](C#N)N[C@H]3CO)cc2)cc1	-11	-9[16.7 µM]
56	Cc1noc(C)c1S(=O)(=O)Nc1ccc2c(c1)C(=O)N([C@@H](C)CO)C[C@@H](C)[C@H](CN(C)C(=O)Nc1ccc(F)cc1)OCCCC[C@H](C)O2	7	-22[16.7 µM]
57	C[C@H](CO)N1C[C@H](C)[C@H](CN(C)CC2CCOCC2)Oc2ncc(Br)cc2C1=O	-5	4[16.7 µM]
58	C[C@@H]1CN([C@@H](C)CO)C(=O)c2cc(NC(=O)Nc3ccc(C(F)(F)F)cc3)ccc2O[C@@H]1CN(C)S(=O)(=O)c1ccc(Cl)cc1	-13	8[16.7 µM]
59	COc1ccc(NC(=O)N(C)C[C@H]2OCCCC[C@H](C)Oc3ccc(NS(C)(=O)=O)cc3C(=O)N([C@@H](C)CO)C[C@@H]2C)cc1	-2	9[16.7 µM]
60	CO[C@@H]1CN(C)C(=O)c2ccc(NS(C)(=O)=O)cc2OC[C@@H](C)N(Cc2ccccc2)C[C@@H]1C	3	4[16.7 µM]
61	Cc1ccc(S(=O)(=O)N[C@@H]2C=C[C@@H](CC(=O)NC3CCCCC3)O[C@H]2CO)cc1	-2	-5[16.7 µM]
62	C[C@H](CO)N1C[C@H](C)[C@H](CN(C)Cc2ccccn2)Oc2cc(-c3cccnc3)ccc2S1(=O)=O	-21	5[16.7 µM]
63	C[C@H]1CCCCO[C@@H](CN(C)C)[C@@H](C)CN([C@@H](C)CO)C(=O)c2cc(NC(=O)CCCN(C)C)ccc2O1	6	3[16.7 µM]
64	CC(C)NC(=O)N(C)C[C@@H]1OCCCC[C@@H](C)Oc2ccc(NS(=O)(=O)c3cccs3)cc2C(=O)N([C@@H](C)CO)C[C@H]1C	-10	-7[16.7 µM]
65	O=C(Nc1ccc(F)cc1)N[C@@H]1CC[C@H](CCNS(=O)(=O)c2ccccc2F)O[C@@H]1CO	-3	16[16.7 µM]
66	C[C@@H]1CN([C@H](C)CO)C(=O)Cc2cc(N(C)C)ccc2O[C@H]1CN(C)C(=O)Nc1cccc2ccccc12	5	7[16.7 µM]
67	COc1ccc(NC(=O)N(C)C[C@@H]2Oc3ccc(NC(=O)Nc4ccc(C(F)(F)F)cc4)cc3CC(=O)N([C@H](C)CO)C[C@@H]2C)cc1	3	-2[16.7 µM]
68	O=C(C[C@H]1CC[C@@H](NS(=O)(=O)c2ccccc2F)[C@@H](CO)O1)NCCCN1CCOCC1	0	-5[16.7 µM]
69	C[C@H](CO)N1C[C@H](C)[C@H](CN(C)C(=O)Nc2ccc3c(c2)OCO3)Oc2ccc(NC(=O)Nc3ccc4c(c3)OCO4)cc2C1=O	-3	10[16.7 µM]
70	CCCNC(=O)N1[C@@H](C#N)[C@@H](c2ccc(C#Cc3ccc(F)cc3)cc2)[C@@H]1CO	-4	6[16.7 µM]

# Full records as entered above. Screens in order: Yeast UUG start | HIV Env fusion
# Record of Cc1ccc(S(=O)(=O)N[C@@H]2C=C[C@@H](CC(=O)NC3CCCCC3)O[C@H]2CO)cc1 : -2 | -5[16.7 µM]
# Record of CC(C)NC(=O)N(C)C[C@@H]1OCCCC[C@@H](C)Oc2ccc(NS(=O)(=O)c3cccs3)cc2C(=O)N([C@@H](C)CO)C[C@H]1C : -10 | -7[16.7 µM]

# Screens as filed in PubChem.
